Screens: PubChem BioAssay, several laboratories
YopH PTP inh – YopH tyrosine phosphatase inhibitors, primary screen, biochemical, fluorescence Ex485/Em525; YopH tyrosine phosphatase [Yersinia enterocolitica]; inhibition, %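 (about 10 µM by stock and volumes)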; hit rate 0.16% among 140,000;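 active = inhibition of 50% or more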;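 also: controls were vehicle for no effect and minimum signal wells for full effect; inactives centre near -20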
Arbovirus anti – antivirals against arbovirus infection, primary screen, cell-based, full library, 10K replicate subset. arbovirus infection cell-based antiviral screen. inhibition, % at 10 µM. hit rate 0.37% among 200,000. AID 1251, 2008;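 active = inhibition from about 30%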;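 also: bluetongue infection of BSR cells; cell survival read as ATP light after 72 h; 0% = infected wells without compound and 100% = uninfected wells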
RecA intein inh – Mtb RecA intein splicing inhibitors, primary screen, biochemical, fluorescence, HTS; Protein RecA (Mycobacterium tuberculosis (strain ATCC 25618 / H37Rv)), P9WHJ3; cell-free RecA intein splicing; inhibition, %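 (about 9 µM by stock and volumes)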; hit rate 0.75% among 290,000; AID 2221, 2009; in the data active = inhibition above about 30%; inconclusive = no clear call, values can overlap the other calls;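 also: 0% = vehicle wells and 100% = reference inhibitor control wells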
Target sequence (P9WHJ3 whole entry, looked up): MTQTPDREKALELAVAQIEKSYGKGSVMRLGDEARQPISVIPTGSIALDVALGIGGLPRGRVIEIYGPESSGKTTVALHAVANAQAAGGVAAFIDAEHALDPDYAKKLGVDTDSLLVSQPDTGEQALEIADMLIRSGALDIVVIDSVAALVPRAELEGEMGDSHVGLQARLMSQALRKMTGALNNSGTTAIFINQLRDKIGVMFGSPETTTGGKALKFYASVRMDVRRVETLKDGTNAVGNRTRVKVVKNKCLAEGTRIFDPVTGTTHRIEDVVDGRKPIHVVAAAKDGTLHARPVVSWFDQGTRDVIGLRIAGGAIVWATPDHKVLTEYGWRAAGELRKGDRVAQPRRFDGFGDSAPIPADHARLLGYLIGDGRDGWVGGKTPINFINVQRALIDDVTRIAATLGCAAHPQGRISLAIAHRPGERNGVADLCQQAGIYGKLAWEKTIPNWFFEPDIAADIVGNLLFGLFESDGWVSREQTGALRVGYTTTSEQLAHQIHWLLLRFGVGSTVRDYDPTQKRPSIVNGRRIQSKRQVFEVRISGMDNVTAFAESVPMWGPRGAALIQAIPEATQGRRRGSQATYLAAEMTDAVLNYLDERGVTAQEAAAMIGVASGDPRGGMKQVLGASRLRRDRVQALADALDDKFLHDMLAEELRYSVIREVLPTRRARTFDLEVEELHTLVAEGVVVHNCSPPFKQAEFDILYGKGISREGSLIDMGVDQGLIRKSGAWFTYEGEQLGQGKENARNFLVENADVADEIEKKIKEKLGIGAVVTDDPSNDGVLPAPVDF
Mtb H37Rv – M. tuberculosis H37Rv growth inhibitors, H37Rv strain (AID 1626). M. tuberculosis H37Rv growth inhibition; higher % means a stronger effect. inhibition, % at 10 µM; hits with a dose series show IC50 in µM. hit rate 0.95% among 220,000;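 active = confirmed in a dose series; inconclusive = inhibition above 80% but not taken into the dose series; inactive = below 80% or under 30% at every dose of the series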;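 also: bacteria incubated seven days before Alamar blue readout; 0% = bacteria only wells and 100% = bacteria with antibiotic wells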
Mtb bLac sens – beta-lactam sensitization of Mtb H37Rv, H37Rv; M. tuberculosis H37Rv growth with meropenem, percent inhibition; hits of this screen are not shown here; inhibition, % at 25 µM; hit rate 0.27% among 330,000;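 active = about 74% or more and at least 40 points above the plate without the antibiotic, then above 30% in a dose series; inconclusive = first-round hits that could not be retested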;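 also: growth measured after seven days incubation then overnight dye step; 0% = bacteria only wells and 100% = bacteria with antibiotic; twin plates without the antibiotic show which effects depend on it; some results filed as inactive read as strong as hits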
Arbovirus anti repeat – recorded beside Arbovirus anti, whose call it bears; inhibition, %; measured here: 10K subset replicate screen; many hits read low in the repeat;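 first of two repeat runs on a subset; 0% = infected and 100% = uninfected wells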
* marks the source's active call; other numbers are inactive results; ? = inconclusive; / = not tested or not shown; & = joins results of further samples. Only part of the results is shown, so the mix of outcomes need not match the whole.

Start of the listing, in advance:
SMILES	YopH PTP inh	Arbovirus anti	RecA intein inh	Mtb H37Rv	Mtb bLac sens	others
Cc1cc(C)c(C#N)c(SCC(=O)N2CCN(Cc3ccccc3)CC2)n1	-36	-4	-7.7	5%	-5
N#CN=C(N)c1ccccc1	-36	2	-1.7	2%&-3%	7

All compounds of this part, from the first entry:
SMILES	YopH PTP inh	Arbovirus anti	RecA intein inh	Mtb H37Rv	Mtb bLac sens	others
Cc1cc(C)c(C#N)c(SCC(=O)N2CCN(Cc3ccccc3)CC2)n1	-36	-4	-7.7	5%	-5
N#CN=C(N)c1ccccc1	-36	2	-1.7	2%&-3%	7
O=C(/C=C/c1ccc(Cl)cc1)NCCN1CCOCC1	-5	1	-7.1	-8%	-2
Clc1ccccc1Cc1noc(CN2CCSCC2)n1	/	7	-1.4	-1%	-7
CO/N=C/NC(=O)NOCc1ncc(C(F)(F)F)cc1Cl	-16	3	-0.2	-6%	-7
Cc1c(Cl)cccc1NC(=O)CCN1CCN(CCO)CC1	/	/	1.1	/	-4
CCN(Cc1ccncc1)Cc1c(O)ccc2ccccc12	/	12	/	2%	/
Clc1ccc(CN(Cc2ccccc2)C(c2cccs2)c2nnnn2C2CCCC2)cc1 (stereo unspecified)	-49	-11	2.2	15%	5
O=C(Nc1ccc([N+](=O)[O-])cn1)C1CC2CCC1C2 (stereo unspecified)	-32	6	1.8	-1%	-3
COc1cccc(CSc2nnc(-c3ccncc3)n2C)c1	/	/	0.6	/	3
O=C1c2ccccc2C(=O)N1CCCCSc1nnc(-c2ccc(OC(F)F)cc2)o1	-15	-4	2.7	0%	0
COc1ccc(N=Nc2nc3cc(Br)c(Br)cc3n2C)c(OC)c1	31	-33	/	?	68
O=[N+]([O-])c1ccc(-c2ccc(/C=N/c3c(-c4ccco4)nc4ccccn34)o2)cc1	-27	3	-3.3	/	98
Cc1ccc(NC(=O)CN2C(=O)NC3(CCCc4ccccc43)C2=O)cc1S(=O)(=O)N1CCOCC1 (stereo unspecified)	/	0	1.3	1%	-10
O=C(NCC(c1ccco1)N1CCc2ccccc2C1)c1cccc(Br)c1 (stereo unspecified)	/	/	11	/	-2
CCNC(=S)N(CCN(C)C)Cc1cc2cc3c(cc2[nH]c1=O)OCO3	/	/	0.7	/	5
Cc1ccc(S(=O)(=O)NNC(=S)Nc2ccccc2)cc1	0	-3	-4.2	15%	0
O=C1CS/C(=N/N=C/c2ccccc2)N1Cc1ccco1	/	/	2.1	0%	-6
Cn1c(=O)[nH]c(=O)c2c1nc(NCc1ccco1)n2Cc1ccccc1Cl	/	1	1.2	0%	-6
COc1ccc(-n2c(C)cc(C(=O)COc3ccc(-n4cnnn4)cc3)c2C)cc1	-47	-7	2.5	-1%	7
Nc1ccc2oc(-c3ccccc3Cl)nc2c1	-31	-12	-48	?	-5
COc1ccc(NC(=O)C2C3C=CC4(O3)C2C(=O)N(CCN2CCCCC2C)C4C(=O)NC2CCCC(C)C2C)cc1 (stereo unspecified)	/	/	3.7	/	-1
COc1ccccc1-c1ccc(/C=C2/C=C(CC(C)C)OC2=O)o1	-14	28	3.6	2%	8
COc1cnn(-c2ccc(C)cc2)c(=O)c1Cl	/	-2	1.6	-6%	8
COC(=O)Cn1cc(C#N)c2ccccc21	-13	3	-3.1	-5%	1
CC(=O)N1N=C(c2ccc(C)cc2)OC1c1cccnc1 (stereo unspecified)	/	2	1.7	7%	-8
Cc1cc(C(=O)OC(C(=O)Nc2cccc(C(F)(F)F)c2)c2ccccc2)c(C)o1 (stereo unspecified)	-22	-15	4.6	-1%	-1
COC(=O)c1ccc(OCCOc2ccccc2C)cc1	/	/	-1.1	/	7
CN(c1nc2c(c(=O)n(C)c(=O)n2C)n1CC(=O)c1ccccc1)C1CCCCC1	-33	-9	0.3	11%	-9
CC(=O)c1ccc(NC(=O)COC(=O)CCc2ccc(S(=O)(=O)N3CCOCC3)cc2)cc1	/	/	1.1	-4%	-11
O=C(c1cc(COc2ccc(F)c(F)c2)on1)N1CCSCC1	/	/	-1.4	/	3
COc1ccc(-c2noc(CN3CCN(C(=O)c4cccs4)CC3)n2)c(OC)c1OC	/	/	2.5	/	4
Cc1ccc(-c2c(C)sc(=NC(=O)c3ccco3)n2C)cc1	-7	6	-2.1	12%	-3
CCOC(=O)C1=C(C)Nc2ccccc2N=C1NC(=O)C(c1ccccc1)c1ccccc1	/	-2	/	-5%	-4
CCc1nccn1CCC(=O)NC1CC(C)(C)Cc2c1cnn2-c1ccc(OC)cc1 (stereo unspecified)	/	/	0.8	/	4
Cc1ccc2nc(SCC(=O)Nc3ccc4c(c3)OCO4)nc(=O)n2c1	/	/	-2.8	/	7
CN(C(=O)c1ccccn1)c1nnc(-c2cccnc2)s1	8	-1	/	2%	2
CC(C)(C)n1nnnc1C(c1cccnc1)N1CCN(C2CCCCC2)CC1 (stereo unspecified)	2	3	1.7	-4%	-9
Cc1ccc2nc(NC(=S)NC(=O)c3cccs3)sc2c1	-32	4	-0.3	?	82
O=C(NCCc1ccccc1)C(=O)NCCC1CCCCN1S(=O)(=O)c1ccccc1 (stereo unspecified)	/	/	0.1	/	-2
COCCn1c(C)cc(/C=N/NC(=O)c2cccnc2)c1C	/	5	-0.3	3%	-3
CCCCN1C(=O)C2C(c3ccc(OC)cc3O)NC(CC(C)C)(C(=O)O)C2C1=O (stereo unspecified)	-26	-2	-0.9	6%	2	Arbovirus anti repeat=1
Oc1ccccc1N1CCN(c2ncnc3scc(-c4ccccc4)c23)CC1	/	/	18	/	5
Cc1cc(C(=O)NNS(=O)(=O)c2cccc(Cl)c2)nn1C(C)(C)C	/	/	0.9	3%	3
Cc1ccc(NC(=O)CNC(=O)c2cccs2)cc1S(=O)(=O)Nc1ccc(Cl)cc1	-26	-12	10	-1%	6
COc1ccc(C(=O)Nc2cc(C)nn2-c2cccc(F)c2)cc1OC	/	/	0.5	/	-8
O=C1N(Cc2cccnc2)C[C@@H]2C[C@@H](c3cccc(OC4CCCC4)c3)N3CCC[C@@]123	/	-11	3.4	3%	-15
Cc1ccc(C(=O)O)cc1-c1ccc(/C=C2\SC(=O)N(CC(=O)Nc3ccc4c(c3)OCO4)C2=O)o1	/	/	-44	/	-12
CCC1CCCCN1C(=O)c1c(-c2ccccc2)noc1C (stereo unspecified)	-19	2	2.8	-14%	-12
CCC(C)[C@H](NC(=O)N1CC(=O)Nc2ccccc21)C(=O)NC(C)CCc1ccccc1 (stereo partly specified)	/	/	0.7	/	2

(cont.)
SMILES	YopH PTP inh	Arbovirus anti	RecA intein inh	Mtb H37Rv	Mtb bLac sens	others
CC(=O)Nc1ccc(NC(=O)CN2CCN(c3cccc(C(F)(F)F)c3)CC2)cc1	-11	-30	1.1	0%	-4
COc1ccc2c(Cl)c(C(=O)N/N=C/c3ccncc3)sc2c1	/	/	-1.6	/	1
O=C(NCCCN1CCCC1=O)c1ccc(Cl)c(Cl)c1	/	5	/	-3%	0
C=CCN(CC=C)C(=S)Nc1ccc2nsnc2c1	/	-13	1.0	8%	1
CC(C)CNS(=O)(=O)c1cc(C(=O)N2CCOCC2)c(Cl)cc1Cl	-48	1	-0.9	-6%	1
O=[N+]([O-])c1cccc(/C(=N/N=C/c2ccccc2Br)C23CN4CN(CN(C4)C2)C3)c1	-26	3	1.5	-9%	-16
O=C(O)c1cccc(N2C(=O)Nc3ccccc3N2O)c1	-26	-8	-5.4	-9%	3
Cc1cc(-c2nnco2)c(C)n1-c1ccc(F)cc1	-31	-2	3.9	-7%	4	Arbovirus anti repeat=-1
CCOc1cc(/C=N/NC(=O)CSc2nncn2C)ccc1OCC(N)=O	/	/	-1.6	/	-8
NC(=O)c1cnn2c(-c3ccc(Cl)cc3Cl)ccnc12	/	/	-11	/	-1
O=C(CCn1nc(-c2ccccc2)ccc1=O)N1CCN(c2ccccn2)CC1	-34	-1	-5.3	/	-3
COc1ccc(CNC(=S)NC2CCCCC2)cc1	/	/	0.9	/	-7
Cc1nonc1OCCNc1ccc([N+](=O)[O-])c2cccnc12	-25	-1	10	11%	6
CC(=O)Nc1ccc(NC(=O)CN2C(=O)COc3ccc(S(=O)(=O)N4CCCCC4)cc32)cc1	/	/	0.7	/	11
COCC(=O)NC1(c2nnnn2CCOC(=O)Nc2ccc(Cl)cc2)CCCCC1	/	1	-2.8	4%	-4
CN(C(=O)c1cccc(N2C(=O)C3C4C=CC(C4)C3C2=O)c1)C1CCCCC1 (stereo unspecified)	/	/	0.2	/	1
Cc1cc(C)cc(NC(=O)CCCCCN2C(=O)[C@@H]3Cc4ccccc4CN3C2=O)c1	/	/	3.7	/	-3
CCOC(=O)C1CCN(C(=S)NC2CCCC2)CC1	/	9	1.8	0%	-2
Cc1oc(-c2ccccc2F)nc1CS(=O)CC(=O)NC1CCCC1 (stereo unspecified)	/	/	-0.3	/	-6
CC(C(=O)NC1CCCC1)N(C(=O)CS(=O)CC(=O)Nc1ccc(F)cc1)c1ccc2c(c1)OCCO2 (stereo unspecified)	-39	6	-0.5	-10%	-1
CCOC(=O)CNC(=O)N1CCCC(Cc2ccccc2)(C(=O)OCC)C1 (stereo unspecified)	/	/	-0.8	/	-6
O=C(NCC(c1ccco1)N1CCCCC1)c1cccc(S(=O)(=O)Nc2ccccc2Cl)c1 (stereo unspecified)	/	/	-1.9	/	1
CCOC(=O)c1ccc(Nc2ncccc2[N+](=O)[O-])cc1	/	-5	-2.1	3%	-6
CCOC(=O)c1ccccc1NC(=O)COC(=O)c1ccc(C)c(S(=O)(=O)N2CCOCC2)c1	-30	7	-1.7	-6%	-4
Cc1ccc2[nH]c(=O)c(CN(Cc3ccco3)C(=O)c3cccs3)cc2c1	7	4	1.7	-1%	/
O=C(CCSc1ccccc1)NCCSc1ccccn1	-32	-6	-0.3	-14%	15	Arbovirus anti repeat=-1
CCN(CC)C(=O)C1=C(C)NC(=S)NC1c1cccs1 (stereo unspecified)	/	16	2.6	4%	-3
CC(C)(CN1CCOCC1)NS(=O)(=O)c1ccccc1	/	/	0.0	/	-1
Cc1nn(Cc2ccccc2)c(C)c1/C=N/NC(=O)c1ccncc1	/	/	-2.6	54%	99
Cc1cc(C)c2sc(N(CCN(C)C)C(=O)c3c(F)cccc3F)nc2c1	/	-11	-0.5	1%	-9
Cc1cc(C)c(NC(=S)N(CCCN2CCOCC2)Cc2cccnc2)c(C)c1	/	-2	-1.3	2%	-3
COc1ccccc1OCC(=O)NNC(=O)c1c(-c2ccccc2Cl)noc1C	/	1	-0.8	1%	-1
COc1cc(C(=O)OCC(=O)NC(=O)NC2CCCCC2)cc(Cl)c1OC	/	/	3.9	/	-7
Cc1ccc(NNC(=O)C(=O)N2CCCCC2)cc1	-16	-20	-4.9	0%	95
C/C(=N\n1cnnc1)c1ccccc1	/	7	-1.1	-3%	5

Some of these compounds in order of SMILES length, low to high.
SMILES	YopH PTP inh	Arbovirus anti	RecA intein inh	Mtb H37Rv	Mtb bLac sens	others
C/C(=N\n1cnnc1)c1ccccc1	/	7	-1.1	-3%	5
COC(=O)c1ccc(OCCOc2ccccc2C)cc1	/	/	-1.1	/	7
CC(C)(CN1CCOCC1)NS(=O)(=O)c1ccccc1	/	/	0.0	/	-1
CC(=O)N1N=C(c2ccc(C)cc2)OC1c1cccnc1 (stereo unspecified)	/	2	1.7	7%	-8
COc1ccccc1-c1ccc(/C=C2/C=C(CC(C)C)OC2=O)o1	-14	28	3.6	2%	8
Oc1ccccc1N1CCN(c2ncnc3scc(-c4ccccc4)c23)CC1	/	/	18	/	5
CC(C)(C)n1nnnc1C(c1cccnc1)N1CCN(C2CCCCC2)CC1 (stereo unspecified)	2	3	1.7	-4%	-9
COc1cc(C(=O)OCC(=O)NC(=O)NC2CCCCC2)cc(Cl)c1OC	/	/	3.9	/	-7
Cc1cc(C)c2sc(N(CCN(C)C)C(=O)c3c(F)cccc3F)nc2c1	/	-11	-0.5	1%	-9
Cc1ccc2[nH]c(=O)c(CN(Cc3ccco3)C(=O)c3cccs3)cc2c1	7	4	1.7	-1%	/
O=C1c2ccccc2C(=O)N1CCCCSc1nnc(-c2ccc(OC(F)F)cc2)o1	-15	-4	2.7	0%	0
CCCCN1C(=O)C2C(c3ccc(OC)cc3O)NC(CC(C)C)(C(=O)O)C2C1=O (stereo unspecified)	-26	-2	-0.9	6%	2	Arbovirus anti repeat=1
Cc1cc(C(=O)OC(C(=O)Nc2cccc(C(F)(F)F)c2)c2ccccc2)c(C)o1 (stereo unspecified)	-22	-15	4.6	-1%	-1
Cc1ccc(NC(=O)CN2C(=O)NC3(CCCc4ccccc43)C2=O)cc1S(=O)(=O)N1CCOCC1 (stereo unspecified)	/	0	1.3	1%	-10
